Bioassay records from PubChem.
PMP22 txn: Cell-based coincidence reporter assay to measure PMP22 gene transcription in S16 Pmp22-F2sN cells - Primary screen. S16 Pmp22-F2sN Schwann cells (luciferase reporters placed in the Pmp22 gene), FLuc/NLuc coincidence luminescence, 24 h. Potency, µM (top dose mostly 57.5 µM), without a hit: at the highest dose activity change, negative = inhibition, most hits filed as inhibitors. actives 2% (n = 43,000). AID 1508649, 2021; active = clear falling dose curves in both reporters; inconclusive = both reporters move, but less clearly or upward; inactive = either reporter flat; the % is the NLuc reporter signal; note: % is set by controls: 0 for no effect and ±100 for the full control effect; some results filed as inactive show a strong effect at the top dose
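S16(c9) Schwann cells with FLuc/NLuc coincidence reporter in the Pmp22 3' UTR; compounds pin-transferred, 24 h at 37C. Dual-luciferase read: FLuc first, then NLuc after Stop&Glo, each 10 min at room temperature.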
HTT promoter inh: Primary qHTS for Identification of Small Molecule Inhibitors of Huntingtin Promoter Activity; HEK293 HTT promoter firefly luciferase reporter (activity 0% = vehicle and -100% = no light), 24 h; Potency, µM (top dose mostly 57.5 µM), for inactives: at the highest dose activity change, negative = inhibition, most hits filed as inhibitors; actives 0.93% (n = 48,000); active = well fitted inhibition curve with a large enough effect; inconclusive = small, poorly fitted or top-dose-only effect; inactive = no such curve, though single readings can be large or run the other way; note: nearly all actives have a fitted effect of over 50% in size
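Firefly luciferase readout (Dual-Glo, 10 min RT) after 24 h, 37 °C compound exposure (final up to 57.5 uM) of HEK293 reporter cells cultured 24 h beforehand; PTC124 at 50 uM final as control inhibitor; activity scaled vehicle 0%, zero RLU -100%.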
* marks the source's active call; other numbers are inactive results; u = inconclusive; x = no result given; [ ] = another dose, or the depositor's remark. Potency is the fitted concentration of half-maximal effect.

| compound | PMP22 txn | HTT promoter inh |
| --- | --- | --- |
| Cc1ccc(C)c(N2CCN(C(=O)c3cccn4c(=O)c5ccccc5nc34)CC2)c1 | u | -20% |
| COc1ccc(NC(=O)Cn2nnc3sc4c(c3c2=O)CCCC4)cc1 | -19% | -17% |
| O=C(NCc1ccc(F)cc1)c1cnc(N2CCOCC2)c2ccccc12 | 2% | -12% |
| CC(=O)c1ccc(N2CCN(c3ncnc4onc(-c5ccc(Cl)cc5)c34)CC2)cc1 | -8% | u |
| CCc1ccc(NC(=O)CN2C(=O)C3(SCC(=O)N3c3ccccc3)c3ccccc32)cc1 (centres undefined) | -27% | u |
| COc1cc2c(cc1OC)C(COc1ccc3c(C)cc(=O)oc3c1)N(C(=O)c1ccc(C)c(C)c1)CC2 (centres undefined) | u | -8% |
| COc1ccc(N2CCN(C(=O)Nc3ccccc3Cl)CC2)cc1 | 12% | -2% |
| COc1ccc(NC(=O)CSc2nnc(-c3nnn(-c4ccc(F)cc4)c3C)o2)cc1 | -16% | 11% |
| COc1ccc(CCNC(=O)c2cc(-c3ccc(C)cc3)nc3n[nH]c(-c4ccccc4)c23)cc1OC | -29% | -17% |
| Cc1ccc(-c2cc(C(=O)O)n(Cc3ccccc3)n2)cc1 | 9% | 36%[activator] |
| Cc1ccccc1Nc1cc(C(=O)NCc2cccs2)c2ccccc2n1 | -38% | 20% |
| O=C(O)c1nc(=O)[nH]c(=O)[nH]1 | x | -11%[25.2 µM] |
| Cc1c(NS(=O)(=O)c2ccc(Cl)cc2)c(=O)n(-c2ccccc2)n1C | -1% | -5% |
| COc1ccc(S(=O)(=O)NCC(c2ccco2)N2CCN(c3ccc(F)cc3)CC2)cc1 (centres undefined) | -28% | u |
| Cc1cc(C)c(/C=C/c2onc(C)c2S(=O)(=O)N2CCC(C(=O)NCc3ccccc3Cl)CC2)c(C)c1 | -5% | -13% |
| Cc1ccc(NC2=CC(c3ccccc3F)N(c3ccc(C)cc3)C2=O)cc1 (centres undefined) | -15% | -22% |
| CCc1ccc(-n2nc(C)c3c(C)cc(=O)n(Cc4nc(-c5ccccc5)oc4C)c32)cc1 | u | 2% |
| Nc1c(NC/C=C\COc2cc(CN3CCCCC3)ccn2)c(=O)c1=O | x | -9%[25.2 µM] |
| CCc1ccc(C2c3c(oc4cc(C)c(C)cc4c3=O)C(=O)N2c2nc(C)c(C(=O)OC)s2)cc1 (centres undefined) | 5% | 15% |
| Cc1cn2c(=O)cc(COC(=O)COc3ccc(C)c(C)c3)nc2s1 | -23% | -7% |
| Cc1ccc2c(c1)sc1nc(=O)n(-c3cccc(Cl)c3)c(=O)n12 | 3% | 35%[activator] |
| COCCn1c(C)cc(O)c(C(c2ccccc2)N2CCN(CCO)CC2)c1=O (centres undefined) | -28% | -5% |
| Cc1cccc(C(=O)Nc2ccc(N3CC=C(c4ccccc4C)CC3)c(C(=O)O)c2)c1 | -4% | 1% |
| Cc1ccc(S(=O)(=O)N2CCc3cc(C(=O)Nc4c(F)cccc4F)ccc32)cc1 | 18% | u |
| COc1ccc(-c2cc(C(F)(F)F)nc(SCC(=O)NC(C)c3ccccc3)n2)cc1 (centres undefined) | u | -18% |
| COc1ccc(N2CCN(C(=O)CSCc3ccc(C)cc3)CC2)cc1 | -3% | -12% |
| CCCCCCc1c(C)c2c(cc(C)c3c(C)coc32)oc1=O | -32% | 8% |
| Cc1cc(C)cc(C(=O)NCC(c2ccc(N(C)C)cc2)N2CCCC2)c1 (centres undefined) | -15% | -7% |
| Cc1c(-c2ccccc2)n(-c2ccc(Cl)cc2)c2nc3c(c(=O)n(C)c(=O)n3C)n12 | -13% | -6% |
| CC(C)(C)C(=O)OCOC(=O)C1N2C(=O)CC2S(=O)(=O)C1(C)C (centres undefined) | x | 9% |

Laid out differently: entries from further up
Results follow in this order: PMP22 txn | HTT promoter inh
COCCn1c(C)cc(O)c(C(c2ccccc2)N2CCN(CCO)CC2)c1=O (centres undefined)
  -28% | -5%
COc1ccc(N2CCN(C(=O)Nc3ccccc3Cl)CC2)cc1
  12% | -2%

Additional records follow.
| compound | PMP22 txn | HTT promoter inh |
| --- | --- | --- |
| CCOc1cc(-c2nc(-c3ccc(-c4ccc(OC)cc4)nc3OC)no2)cc(OCC)c1OCC | u | 3% |
| CCOc1ccc(C2CC(=O)c3c([nH]c(C(=O)OCc4ccccc4)c3C)C2)cc1 (centres undefined) | u | -28% |
| Cc1ccc(Cl)cc1N1CCN(S(=O)(=O)c2ccc3c(c2)CCN3C(=O)C2CCC2)CC1 | 0% | -7% |
| COCCOCC(OC)OC | x | 3% |
| CC(=O)NCCNC(=O)c1ccc2c(=O)n(CCc3ccccc3)c(=O)[nH]c2c1 | 15% | 42%[activator] |
| Cc1cccc2sc(N3CCN(C(=O)c4ccco4)CC3)nc12 | -77% | 12% |
| COc1ccc(CNC(=O)c2cc(-c3ccc(Cl)cc3)n[nH]2)cc1 | -22% | 3% |
| Cc1ccccc1-c1nnc(SCC(=O)N(C)c2ccccc2)o1 | 5% | 47%[activator] |
| COc1ccc(Nc2cc(C(=O)NCCCN(C)Cc3ccccc3)c3ccccc3n2)cc1OC | u | -24% |
| CCC(CC)C(=O)Nc1ccc2nc(SCC(=O)N3c4ccccc4CC3C)sc2c1 (centres undefined) | 0% | -22% |
| Fc1cccc(-n2ncc3c2ncn2nc(COc4ccc(Cl)cc4)nc32)c1 | -2% | -2% |
| Cc1ccc2nc(-c3ccco3)c(Nc3ccc4c(c3)OCCO4)n2c1 | -65% | 13% |
| CCOc1cc(C(=O)NCCc2csc3nc(-c4ccccc4F)nn23)cc(OCC)c1OCC | -18% | -15% |
| C[Se]CCC(N)C(=O)O (centres undefined) | x | -8%[116 µM] |
| CC1=C(C(=O)NCc2ccc(Cl)cc2)C2(CCCCCC2)OC1=O | -14% | -28% |
| COc1ccc(NC(=O)CN2CCN(S(=O)(=O)c3ccc(Br)cc3)CC2)cc1 | 14% | -37% |
| Cc1oc2c(c1C(=O)NCc1ccccc1F)C1=NCCN1C=N2 | -8% | -3% |
| COC(=O)NCc1c(C)nn(-c2ccccc2)c1-n1cccc1 | 3% | -24% |
| O=C(NCCC1=CCCCC1)c1ccc2c(c1)N(Cc1ccccc1)C(=O)c1ccccc1S2=O (centres undefined) | 13µM* | -30% |
| COc1ccc2cc3cc(C(=O)N4CCN(c5cccc(Cl)c5)CC4)sc3nc2c1 | -14% | -1% |
| O=C(NCCc1ccccc1)c1cc(-c2ccc(Cl)cc2)on1 | -6% | 4% |
| CCCCN(C(=O)C1CCC(CNS(=O)(=O)c2cccc3nsnc23)CC1)c1ccccc1 (centres undefined) | u | u |
| CCCc1nn2c(=O)cc(COC(=O)c3cccc(NC(=O)c4ccc(OCC)cc4)c3)nc2s1 | u | -28% |
| COc1ccc2c(CNCCc3ccccc3)c(C(=O)O)n(Cc3cccc(F)c3)c2c1 | -11% | u |
| Cc1ccc(-c2nc3cccc(C)n3c2Nc2ccc3c(c2)OCCO3)cc1 | u | 39%[activator] |
| CCN(Cc1ccccc1)Cc1c(O)ccc2oc(C)c(C(=O)Nc3ccccc3C)c12 | u | -35% |
| COc1cccc(OC)c1C(=O)Nc1nnc(C)s1 | -7% | -14% |
| COc1ccc(S(=O)(=O)N(CC(=O)Nc2ccc3c(c2)OCO3)c2ccc(C)cc2)cc1 | 8% | -18% |
| COc1ccc(C2=CC(c3ccc(F)cc3)n3ncc(C(=O)Nc4ccc(C)cc4)c3N2)cc1 (centres undefined) | u | u |
| CN(C)S(=O)(=O)N(CC(=O)NCCSc1ccc(Cl)cc1)c1ccccc1 | -3% | -17% |
| CCc1cccc(C)c1NC(=O)C1=C(C)C(=O)OC12CCC(C)CC2 (centres undefined) | -26% | -7% |
| Cc1ccc(Cn2c(C)c(CNC(C)c3ccccc3)c(C(=O)O)c2C)cc1 (centres undefined) | -9% | u |
| CCCCN(Cc1ccccc1)C(=O)c1oc(=O)c2ccccc2c1-c1ccc(C)cc1 | u | u |
| CCCCn1cc(S(=O)(=O)c2ccc(CC)cc2)c(=O)c2cc(F)c(N3CCOCC3)cc21 | -30% | 0% |
| COc1ccc(NC(=O)CC2C(=O)N(c3ccccc3)C(=O)N2C2CCCCC2)cc1 (centres undefined) | 14% | -20% |
| Cc1cccc(-c2nc(C)c(CCNC(=O)C(=O)Nc3ccc(C)c(C)c3)s2)c1 | u | -8% |
| CCc1ccccc1NC(=O)Cn1c(=O)n(Cc2ccc3c(c2)OCO3)c(=O)c2ccc(C(=O)NC3CCCCC3)cc21 | 12µM* | -12% |
| Cc1ccc2nc(Cl)c3cc(C(=O)NC4CCC(C)CC4)sc3c2c1 (centres undefined) | 8% | 7% |
| COc1ccc2cc3cc(C(=O)NCCc4ccccc4)sc3nc2c1Cl | -89% | -13% |
| Cc1nnc(NCc2ccccc2)c2c1nnn2Cc1ccc(F)cc1 | u | u |
| CCc1ccccc1NC(=O)N1CC(C)Sc2ccccc21 (centres undefined) | 1% | -8% |
| COc1ccc(NC(=O)c2ccc3c(c2)CCN3S(=O)(=O)c2ccccc2)cc1 | 0% | -27% |
| COc1ccc(-c2nnc(SCC(=O)Nc3c(C)cccc3C)nc2-c2ccc(OC)cc2)cc1 | -29% | u |
| COc1cc(OC)c(NC(=O)c2ccc3nc(C(C)C)oc3c2)cc1Cl | u | u |
| CC(C)OC(=O)C1=CN(C(=O)c2ccc(F)c(F)c2)CC(C)(C)c2c1[nH]c1ccccc21 | x | 11% |
| COc1ccccc1Nc1ncc2c(n1)CCN(Cc1ccc(C)s1)C2 | -3% | 4% |
| Cc1ccc(-c2noc(-c3nnn(-c4cccc(C(F)(F)F)c4)c3N)n2)cc1 | -11% | 5% |
| Cc1ccc2oc(C(=O)N(Cc3ccccc3F)C3CCS(=O)(=O)C3)c(C)c2c1 (centres undefined) | u | u |
| Cc1ccccc1CNC(=O)Cc1csc2ccccc12 | -14% | 44%[activator] |
| Cc1ccccc1-c1nc2c(c(SCc3cccc(Cl)c3)n1)Cc1c(CO)cnc(C)c1O2 | u | -12% |
| CCOC(=O)N1CCc2c(sc3c2c(=O)n(-c2ccccc2)c(=O)n3CC(=O)Nc2ccc(OC)cc2OC)C1 | u | -5% |
| COc1ccccc1C(=O)Nc1ccccc1SCc1cc(=O)c2ccccc2[nH]1 | u | 14% |
| Cc1c(C(=O)Nc2cccc(C(F)(F)F)c2)sc2nc3n(c(=O)c12)CCCC3 | -8% | -15% |
| Cc1ccccc1-c1noc(-c2ccc(N3CCCC3)c([N+](=O)[O-])c2)n1 | -2% | 10µM* |
| Cc1cc(C)cc(-n2ccnc(NCCc3ccccc3)c2=O)c1 | u | 13% |
| Cc1ccc(Cl)c2sc(NC(=O)c3ccc(S(=O)(=O)N4CCCC4)cc3)nc12 | u | -11% |
| O=C(Nc1ccc(C(=O)OCc2cc(=O)n3c4c(sc3n2)CCCC4)cc1)c1ccc(F)cc1 | -17% | -8% |
| CC1CCc2c(sc3nnn(CC(=O)Nc4cccc(C(F)(F)F)c4)c(=O)c23)C1 (centres undefined) | u | -25% |
| Cc1cccc(-n2cc(-c3ccccc3)nc2SCC(=O)Nc2ccccc2Cl)c1 | -2% | u |
| COc1ccccc1C(=O)c1c(N)c(-c2nc(-c3ccccc3)cs2)c2ccccn12 | -12% | -13% |

Sorted by the number under HTT promoter inh (highest first): three of the compounds above.
SMILES | HTT promoter inh
CCc1cccc(C)c1NC(=O)C1=C(C)C(=O)OC12CCC(C)CC2 (centres undefined) | -7%
CCc1ccccc1NC(=O)N1CC(C)Sc2ccccc21 (centres undefined) | -8%
Cc1c(C(=O)Nc2cccc(C(F)(F)F)c2)sc2nc3n(c(=O)c12)CCCC3 | -15%

Given with each value named: 3 of the compounds above.
COC(=O)NCc1c(C)nn(-c2ccccc2)c1-n1cccc1
  PMP22 txn = 3%
  HTT promoter inh = -24%
O=C(NCCC1=CCCCC1)c1ccc2c(c1)N(Cc1ccccc1)C(=O)c1ccccc1S2=O (centres undefined)
  PMP22 txn = 13µM*
  HTT promoter inh = -30%
COc1ccc2cc3cc(C(=O)N4CCN(c5cccc(Cl)c5)CC4)sc3nc2c1
  PMP22 txn = -14%
  HTT promoter inh = -1%

Further structures.
| compound | PMP22 txn | HTT promoter inh |
| --- | --- | --- |
| O=S(=O)(NCCNCC=Cc1ccc(Br)cc1)c1cccc2cnccc12 | x | u |
| CCC(=O)N1CCc2cc(Br)cc(S(=O)(=O)NCCc3ccccc3)c21 | u | u |
| COC(=O)c1ccc(Cn2c(SCc3ccccc3F)nc3ccncc32)cc1 | -23% | -9% |
| CC1CCCCN1S(=O)(=O)c1ccc(F)c(C(=O)Nc2ccccc2C(F)(F)F)c1 (centres undefined) | 9% | -7% |
| COc1cc2c(cc1O)CCC1C2CC[C@@]2(C)C1CC[C@@H]2O (some centres undefined) | x | -16% |
| Cc1nc(SCC(=O)N2CCN(c3ccccc3)CC2)[nH]c(=O)c1C | 3% | -13% |
| Cc1cccc(-n2c(C)nc3cc(C(=O)NC4CCCCCC4)ccc32)c1 | -12% | 3% |
| Cc1ccc(C)c(N(C)S(=O)(=O)c2ccc3[nH]cc(C(=O)NC4CCCC4)c(=O)c3c2)c1 | u | u |
| CC1CCN(C(=O)Cn2cc(SCC(=O)NCc3ccccc3Cl)c3ccccc32)CC1 | u | -31% |
